High-throughput results as filed in PubChem.
Rango-impB inh – Rango-importin beta binding inhibition; Q14974; Rango CFP/YFP FRET sensor + importin beta, 45 min; Potency, µM (titrated, usually from 92.2 µM), for inactives: at the top dose inhibition of complex formation; 340,000 tested, 0.031% active; AID 540263; active = rising FRET ratio curve, often small or poorly fitted; inconclusive = mostly compound fluorescence or quenching in the first reads; inactive = flat curves in all reads;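 note: potency is the fitted concentration of half-maximal effect; 0% = DMSO wells and 100% = buffer wells lacking importin beta; nearly all actives have a fitted effect of over 15% in size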
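FRET biosensor Rango (snurportin 1 IBB between N-terminal EYFP and C-terminal Cerulean), 50 nM in PBS/1 mM DTT/0.02% Tween-20/0.1% BSA, preincubated 5 min RT with compound; 0.125 microM importin beta added, 45 min RT, CFP/YFP FRET ratio read.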
miR-21 FLuc – miR-21 reporter, rising signal. Potency, µM (top dose mostly 38.3 µM), for inactives: top-dose reporter change, positive = more light. HeLa miR-21 FLuc reporter, luciferase, 48 h. 340,000 tested, under 10 active; active = well fitted rising curve with a large enough effect; inconclusive = small, poorly fitted or top-dose-only effect; inactive = no such curve, though single readings can be large or run the other way;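 note: % of control where 0% means no effect; miR-21 action dims this reporter so a rising signal means less miR-21 action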
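HeLa cells endogenously expressing miR-21, stably carrying CMV-driven firefly luciferase with a downstream miR-21 binding site, 2000 cells/well. Titrations up to approximately 40 uM, 48 hours; luciferase luminescence read.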
Rango dissoc inh – inhibitors of RanGTP-induced Rango-importin beta complex dissociation; O95149+P62826; Biochemical FRET Rango-importin beta, RanGTP-induced dissociation; Potency, µM (top dose mostly 46.1 µM), without a hit: at the highest dose activity change, negative = inhibition; 340,000 tested, 0.071% active; active means falling FRET ratio curve, often poorly fitted, with flat reads before Ran was added; inconclusive means other falling curves, or compound fluorescence or quenching; inactive means flat or rising ratio curve;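 note: potency is the fitted concentration of half-maximal effect; % of control where 0% means no effect; nearly all actives have a fitted effect of over 45% in size; -100% = wells without RanGTP and RCC1; the record marks most hits as doubtful in a second field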
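Compounds preincubate 5 min with complex of recombinant Rango and importin beta in PBS with 1 mM DTT. Ran (0.6 uM) loaded with 2 mM GTP plus 0.2 uM RCC1 starts dissociation; FRET is recorded 45 min later.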
GLA inh pH 4.5 – blocks human alpha-galactosidase A at pH 4.5; AID 1467; purified enzyme, 4-MU-alpha-Gal fluorescence, pH 4.5; activity change, negative = inhibition, % at 105 µM; P06280; 230,000 tested, under 10 active; inconclusive = small, poorly fitted or top-dose-only inhibition, or a rising curve; inactive = flat fitted curve, though single readings scatter; no compound was filed as active;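 note: 0% = full activity with enzyme and -100% = basal without enzyme; dose as in the result columns while the protocol names 77 µM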
Target sequence (P06280 whole entry, looked up): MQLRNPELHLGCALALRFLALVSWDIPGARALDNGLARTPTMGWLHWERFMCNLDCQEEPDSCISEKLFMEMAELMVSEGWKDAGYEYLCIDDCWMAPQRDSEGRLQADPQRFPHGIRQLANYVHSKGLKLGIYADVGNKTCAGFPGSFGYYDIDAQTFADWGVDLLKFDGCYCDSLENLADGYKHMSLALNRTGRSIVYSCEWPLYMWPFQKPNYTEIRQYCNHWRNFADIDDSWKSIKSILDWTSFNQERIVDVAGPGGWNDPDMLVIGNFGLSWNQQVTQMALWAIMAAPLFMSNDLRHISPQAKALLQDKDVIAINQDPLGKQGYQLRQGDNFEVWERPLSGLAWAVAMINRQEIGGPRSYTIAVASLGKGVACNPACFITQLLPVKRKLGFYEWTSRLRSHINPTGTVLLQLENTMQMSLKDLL
Numbers without * were called inactive; ? = inconclusive; nt = not tested or not shown; & = joins results of further samples.

SMILES	Rango-impB inh	miR-21 FLuc	Rango dissoc inh	GLA inh pH 4.5
O=c1cnnc(Nc2ccc(Nc3ccccc3)cc2)[nH]1	2.0%	-1%	-3%	2
CCc1ccc(S(=O)(=O)N(C(=O)c2ccncc2)c2ccc(OC(=O)c3ccncc3)cc2)cc1	1.0%	-3%	2%	-1
CCOC(=O)C1=C(COC(=O)/C=C/c2ccc(Cl)cc2)NC(=O)NC1C (stereo not drawn)	3.2%	-8%	14%	nt
Cc1ccc(NC(=O)CCNC(=O)c2ccc(Br)cc2)nc1	-3.3%	-23%	7%	nt
Cc1ccc(S(N)(=O)=O)cc1NC(=O)/C=C/c1ccc2c(c1)OCO2	0.7%	-16%	-14%	2
CC(c1ccccc1)N1CCn2c(nc3cc(NC(=O)NC4CCCCC4)ccc32)C1 (stereo not drawn)	1.6%	-34%	-22%	-3
Cc1cc(SCc2ccc([N+](=O)[O-])cc2)nc(=O)[nH]1	-2.1%	-11%	-10%	nt
CCOC(=O)N1CCC(NC(=O)Cn2cccc2C(=O)c2ccccc2C)CC1	0.2%	-5%	2%	4
COc1ccc(N(C(=O)COc2cccc(C)c2)S(=O)(=O)c2ccc(C)cc2)cc1	0.8%	-10%	0%	-1
CCn1c2ccccc2c2cc(/C=N/n3cn[nH]c3=S)ccc21	-0.3%	-1%	16%	-2

Full records, quoted from the list.
`CCc1ccc(S(=O)(=O)N(C(=O)c2ccncc2)c2ccc(OC(=O)c3ccncc3)cc2)cc1` is listed as Rango-impB inh: 1.0%; miR-21 FLuc: -3%; Rango dissoc inh: 2%; GLA inh pH 4.5: -1
`Cc1ccc(NC(=O)CCNC(=O)c2ccc(Br)cc2)nc1` is listed as Rango-impB inh: -3.3%; miR-21 FLuc: -23%; Rango dissoc inh: 7%; GLA inh pH 4.5: nt

Retrieved by compound from the list above (two):
SMILES	Rango-impB inh	miR-21 FLuc	Rango dissoc inh	GLA inh pH 4.5
CCn1c2ccccc2c2cc(/C=N/n3cn[nH]c3=S)ccc21	-0.3%	-1%	16%	-2
CCOC(=O)N1CCC(NC(=O)Cn2cccc2C(=O)c2ccccc2C)CC1	0.2%	-5%	2%	4

Next section.
SMILES	Rango-impB inh	miR-21 FLuc	Rango dissoc inh	GLA inh pH 4.5
Nc1nc(SCC(=O)c2cc3ccccc3o2)n[nH]1	-1.6%	-3%	-14%	4
COc1cccc(C(=O)COC(=O)COc2c(C)cc(C)cc2C)c1	6.8%	nt	-12%	nt
COc1ccc(C(=O)Cc2cc3ccccc3oc2=O)cc1	1.0%	-50%	5%	nt
COCCn1cc(C(=S)N2CCOCC2)c2ccccc21	-0.9%	0%	-4%	-1
Cc1ccc(NC(=O)CN(C)CC(=O)Nc2ccc(N3CCOCC3)cc2)c(C)c1	-0.6%	2%	10%	9
COc1ccc(CN2CCOCCOCCN(Cc3ccc(OC)cc3)CCOCCOCC2)cc1	4.9%	14%	10%	-4
O=C(NCCc1ccncc1)C(F)(F)F	0.2%	0%	-12%	-2
O=C(CCCOc1ccccc1)Nc1ccncc1	0.7%	-3%	1%	2
C/C(=N\Nc1nc(C)cc(-c2ccccc2)n1)c1ccc(O)cc1	-0.4%	13%	12%	nt
O=C(CCS(=O)(=O)c1cccc2nonc12)N1CCN(c2ccc(F)cc2)CC1	-1.6%	0%	-11%	0
CC[n+]1c(C)n(C)c2cc(S(=O)(=O)N(C)C)ccc21	0.2%	0%	1%	3
O=C(O)/C(=C\c1c(C(=O)O)[nH]c2cc(Cl)cc(Cl)c12)c1ccccc1	?	nt	-12%	nt
N/C(=N\OC(=O)CSc1ccccc1)c1ccc([N+](=O)[O-])cc1	0.1%	-64%	11%	-2
CN1C(=O)C(O)(CC(=O)/C=C\c2ccc3c(c2)OCO3)c2ccccc21 (stereo not drawn)	-3.5%	10%	5%	4
C(=N\N1CCN(c2ccccn2)CC1)/c1ccco1	-1.0%	-32%	5%	3
Cc1cc(C)nc(N/N=C/c2ccco2)n1	-1.9%	-16%	-11%	-15
Cc1ccc(Cl)cc1NC(=S)N(CCN(C)C)Cc1cccs1	1.2%	1%	-1%	-1
COc1ccc(Cc2c(O)nc(SCC(=O)NC34CC5CC(CC(C5)C3)C4)[nH]c2=O)cc1	-2.3%&-5.8%	-3%&0%	12%&-3%	-1&3
O=C1CC(c2ccc(Cl)cc2)n2nc(NS(=O)(=O)c3ccc(F)cc3)nc2N1 (stereo not drawn)	-15%	0%	32%	9
O=C(NN=Cc1cc([N+](=O)[O-])ccc1O)c1cccc2ccccc12	0.3%	nt	-14%	nt
Cc1c(-c2nc(-c3ccc(C(F)(F)F)cc3)no2)n(C)oc1=O	-2.5%	-65%	3%	-2
CC(C)(C)C(=O)Nc1cccc(-c2nc3ccccc3[nH]2)c1	2.4%	-7%	23%	-5
CC1=C(C(=O)NC2CC(C)(C)Cc3c2cnn3-c2cccc(F)c2)OCCO1 (stereo not drawn)	2.3%	3%	8%	nt
COc1cc(NC(=O)CSc2nc(C)cs2)cc(OC)c1	1.0%	0%	-17%	-2
O=C(Nc1ncn[nH]1)c1ccccc1Br	-2.3%	0%	13%	-4
O=C(COc1ccc(Cl)cc1)N1CCCCC1	6.5%	-34%	-9%	-5
CC(=O)N(Cc1cc(=O)[nH]c2ccccc12)c1ccccc1C	0.3%	-2%	1%	nt
CCC(C)(CC(=O)O)CC(=O)Nc1cc(C(F)(F)F)cc(C(F)(F)F)c1 (stereo not drawn)	-1.2%	1%	-11%	2
CN1CCN(CCC(=O)Nc2cccc(Br)c2)CC1	2.0%	-3%	6%	0
S=C(NCC1CCCO1)Nc1ccc(Nc2ccccc2)cc1 (stereo not drawn)	0.7%	11%	-7%	7
CCOc1ccccc1CN1CCN(Cc2[nH]c3ccccc3c2C)CC1CCO (stereo not drawn)	2.9%	17%	1%	7
CCOC(=O)c1c(C)[nH]c(C)c1C(=O)COc1ncnc2ccccc12	8.5%	5%	14%	1
CCCc1nn(-c2ccccc2)c2c1C(c1cccs1)C(C#N)=C(N)O2 (stereo not drawn)	4.6%	-3%	-11%	-8
O=C(N/N=C/c1cccc(OC(=O)N2CCOCC2)c1)c1cccs1	-1.1%	-28%	0%	1
CCOCCn1c(CN2CCN(C(c3ccccc3)c3ccccc3)CC2)nc2c1c(=O)n(C)c(=O)n2C	1.3%	0%	-10%	nt
COCCNC(=O)Cn1ccc2cc(S(=O)(=O)N3CCCCCC3)ccc21	-4.9%	0%&1%	16%	nt
CCc1cc(C(=O)OC)c(NC(=O)CC2Nc3cc(C)c(C)cc3NC2=O)s1 (stereo not drawn)	?	-15%	?	-6
O=C(CSc1nc2ccccc2c(=O)n1-c1ccc(F)cc1)Nc1ccc(Cl)c(S(=O)(=O)N2CCOCC2)c1	?	1%	-5%	-2
COc1ccc2c(C)cc(SCC(=O)Nc3c(C)n(C)n(-c4ccccc4)c3=O)nc2c1	2.3%	-25%	-2%	-3
Cc1ccc(S(=O)(=O)NCC(=O)N2CCOCCOCCOCC2)cc1	-0.9%	0%	2%	nt
CN(C(=O)COC(=O)COc1ccccc1F)C1CCS(=O)(=O)C1 (stereo not drawn)	1.2%	1%	5%	7
CCN(CC)CCCNC(=O)c1c(O)c2cc(F)cc3c2n(c1=O)C(C)CC3 (stereo not drawn)	-1.5%	?	1%	nt
O=C(O)c1cc(-c2ccc(Cl)c(Cl)c2)n(-c2ccc(F)cc2)n1	-1.1%	-4%	5%	nt
O=C(Cn1nnc(-c2ccccc2)n1)OC1CCOC1=O (stereo not drawn)	1.5%	3%	-7%	10
Cc1[nH]c2ccccc2c1C(=O)COC(=O)C1CC(O)CN1S(=O)(=O)c1ccc(Cl)cc1 (stereo not drawn)	0.6%	nt	-1%	nt
COc1cccc(CN2CC(C(=O)NCCSc3nnnn3C)CCC2=O)c1 (stereo not drawn)	-3.2%	-2%	-1%	nt
O=C(NNC1=NCCCCC1)c1cccc([N+](=O)[O-])c1	7.5%	1%	8%	-7
C#CCNC(=O)C1=C[C@@H](c2coc3ccccc3c2=O)[C@H](CCCO)[C@@H](OCC)O1	4.5%	-2%	-10%	8
CN(c1ccc(OCC(=O)OCc2nnc(-c3ccccc3)o2)cc1)S(=O)(=O)c1ccc(Cl)cc1	7.7%	nt	-18%	nt
Cc1ccc(-c2nnc3ccc(SCC(=O)N4CCc5ccccc54)nn23)cc1	-1.0%	-6%	7%	-8

Later entries.
SMILES	Rango-impB inh	miR-21 FLuc	Rango dissoc inh	GLA inh pH 4.5
COc1cccc(C(=O)N2CCC(O)(c3cccnc3)CC2)c1	-1.1%	0%	21%	-4
CCCCCc1c(C)nc(N2CCc3ccccc3C2)[nH]c1=O	0.6%	-2%	11%	1
CCOC(=O)c1cnc(N2CCN(c3ccccc3)CC2)[nH]c1=O	-4.0%	2%	?	nt
O=C(C1CCN(c2nc(-c3ccccc3)nc3c2CCC3)CC1)N1CCCC1	-0.3%	nt	3%	nt
COc1cc(NC(=O)c2sc3ncn(CC(=O)N4CCC(C)CC4)c(=O)c3c2C)cc(OC)c1OC	-0.9%	16%	-1%	nt
Cc1cccc(N2CSC3=C(C#N)C(c4ccc(C)o4)CC(=O)N3C2)c1 (stereo not drawn)	nt	-19%	nt	-12
C=CCNC(=O)[C@H]1N2C(=O)c3ccccc3C2SC1(C)C (stereo partly drawn)	-0.2%	-1%	-5%	nt
O=C(Nc1cnn(Cc2ccc(Cl)cc2)c1)c1ccc([N+](=O)[O-])cc1	-0.5%	25%	0%	-5
COc1ccc(OC)c(-n2nnnc2SCC(=O)Nc2nc(C)c(C)s2)c1	-2.2%	-8%	13%	1
Cc1ccc2nc(N/C(=N/S(=O)(=O)c3ccc(F)cc3F)c3ccccc3)sc2c1	-0.4%	-42%	0%	0
COc1ccc(S(=O)(=O)N2CCOCC2)c2ccccc12	4.9%	-20%	-20%	nt
Cc1ccc(-c2nc3cc(NC(=O)C(C)C)ccc3o2)cc1	-2.4%	-57%	-10%	-19
Cc1ccc(S(=O)(=O)N[C@H](C(=O)OCC(=O)NC(=O)c2cccn2C)C(C)C)cc1	2.0%	nt	8%	nt
Cc1ccc(Sc2cc(C(=O)c3ccccc3C(=O)O)ccc2[N+](=O)[O-])cc1	-0.2%	-1%	1%	nt
O=C(Nc1ccccc1Cl)C1CC(=O)n2c(nc3ccccc32)N1 (stereo not drawn)	nt	0%	nt	3
CCC1([N+](=O)[O-])COC(c2ccc(Cl)cc2)OC1 (stereo not drawn)	4.1%	nt	4%	nt
COc1ccc(C2=NN(S(C)(=O)=O)C(c3cccs3)C2)cc1 (stereo not drawn)	-2.1%	-65%	-9%	2
CN(C)CCn1c(=O)n(-c2ccc(F)cc2)c(=O)c2c3c(sc21)CCCCC3	-2.7%	0%	13%	-16
COc1ccc(C(=O)NNS(=O)(=O)c2ccccc2)cc1OC	-3.6%	1%	-6%	nt
COc1cc(OC)cc(-c2cc3ccc(F)cc3cn2)c1	3.3%	nt	10%	nt
O=C1Nc2cc(C(=O)NCCN3CCCCCC3)ccc2S/C1=C\c1ccccc1	-1.0%	21%	-20%	nt
O=c1cc(COc2ncnc3c(Cl)cc(Cl)cc23)nc2sccn12	4.2%	-2%	20%	-1
O=C(NCCc1nnc2ccc(SCC(=O)N3CCCC3)nn12)c1ccccc1	-0.9%	-2%	37%	nt
Cc1ccc(O)c(NC(=O)C2=CC(c3cccs3)=NS(=O)(=O)N2C)c1	0.8%	4%&-6%	6%	nt
COc1ccccc1C(=O)NC(=O)COC(=O)Cn1[nH]c(=O)c2ccccc2c1=O	1.9%	nt	-9%	nt
CN(CC(=O)Nc1ccc(F)cc1)C(=O)Cc1ccsc1	?	nt	5%	nt
O=C(NCCc1cccs1)C1CC(c2c(Cl)cccc2Cl)=NO1 (stereo not drawn)	-0.9%	25%	1%	-3
CN1CCN(c2ccc([N+](=O)[O-])cc2NC(=O)c2ccccc2Cl)CC1	2.7%	-7%	2%	2
COCC(=O)NNC(=O)c1ccc(OC)cc1	-0.9%	-1%	-1%	2
O=C(NCc1ccccn1)Nc1cccc(NC(=O)NCc2ccccn2)c1	3.2%	-18%	-3%	0
Cc1cccc2nc(CSc3nnc4ccccn34)cn12	-1.5%	-18%	10%	2

An excerpt; count on the stated rates, not on these rows.
